GALR2 ag: GALR2 (human) receptor agonism | O43603 | GALR2-expressing cells, agonist activation read-out | activation, %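 (tested at 5 µM)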 | 140,000 compounds, 0.48% hits | AID 803;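 active = above mean plus 3 SD of all compounds, about 5% in these data, not always enough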;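 also: 0% = vehicle buffer wells and 100% = reference agonist at full effect; tested in CHO reporter cells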
Target sequence (O43603 whole entry, looked up): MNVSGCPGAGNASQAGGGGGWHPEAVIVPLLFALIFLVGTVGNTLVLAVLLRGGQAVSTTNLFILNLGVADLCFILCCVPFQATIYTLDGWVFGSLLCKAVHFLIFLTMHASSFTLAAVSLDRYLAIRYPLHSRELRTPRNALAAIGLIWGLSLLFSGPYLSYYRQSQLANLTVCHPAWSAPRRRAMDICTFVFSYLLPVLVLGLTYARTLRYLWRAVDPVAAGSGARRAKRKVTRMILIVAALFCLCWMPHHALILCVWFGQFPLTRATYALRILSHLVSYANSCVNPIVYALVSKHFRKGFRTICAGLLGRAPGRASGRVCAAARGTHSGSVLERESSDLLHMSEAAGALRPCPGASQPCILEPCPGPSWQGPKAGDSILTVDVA
Insulin prom inh: TRM-6 insulin promoter activity inhibition; 130,000 compounds, 0.9% hits; TRM-6 cells (human fetal islet line), insulin promoter-eGFP reporter, imaging; reporter expression induced with tamoxifen; inhibition, % at 2 µM;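 active = inhibition above the mean plus 3 SD, with well images judged a real hit on visual review, cut at about 60% in these data, passing the limit was not always enough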
RGS16-Gao HTS: RGS16-Galphao interaction regulator (human); O15492+P09471; bead-based flow cytometry RGS16-Galphao binding, fluorescence; actives lie on both sides; binding response (% of control), % at 10 µM; 220,000 compounds, 0.38% hits;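 active = below 25% or above 175%, edge rows of some plates excepted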;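 also: Galphao activated by GDP with aluminum fluoride before binding; 100% = wells without compound and 0% = beads without RGS; some results beyond the cut were filed as inactive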
Target sequence (O15492 whole entry, looked up): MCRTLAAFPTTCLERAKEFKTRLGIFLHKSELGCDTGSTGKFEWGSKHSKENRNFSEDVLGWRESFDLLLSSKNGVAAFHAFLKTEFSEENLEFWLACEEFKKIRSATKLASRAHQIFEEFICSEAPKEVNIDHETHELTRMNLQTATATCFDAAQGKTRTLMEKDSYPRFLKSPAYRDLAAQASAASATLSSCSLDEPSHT
Target sequence (P09471 whole entry, looked up): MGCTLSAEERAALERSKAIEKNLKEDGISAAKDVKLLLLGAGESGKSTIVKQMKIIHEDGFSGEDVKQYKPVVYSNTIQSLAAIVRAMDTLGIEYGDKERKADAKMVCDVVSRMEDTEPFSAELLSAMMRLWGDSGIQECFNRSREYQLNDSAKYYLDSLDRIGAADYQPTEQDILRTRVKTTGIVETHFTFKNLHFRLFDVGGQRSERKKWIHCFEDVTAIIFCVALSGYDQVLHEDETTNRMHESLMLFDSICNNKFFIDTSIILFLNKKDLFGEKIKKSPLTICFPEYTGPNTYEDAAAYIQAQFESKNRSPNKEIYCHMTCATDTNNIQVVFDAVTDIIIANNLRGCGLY
HSV replic up: increases HSV replication in cells; 220,000 compounds, 0.005% hits; HSV replication augmentation in cells, fold increase; maximum fold increase; AID 1956;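 active = peak rise of 1.5-fold or more in the series; tested in PC3 cells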;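 also: first round at 10 µM; read as green reporter fluorescence; hits show the peak of a series up to 25 µM; 1 = signal of infected wells without compound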
PKD1 kinase inh: blocks activity of human protein kinase D1; Q15139; PKD1 kinase fluorescence polarization assay; inhibition, %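 (about 10 µM by stock and volumes)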; 200,000 compounds, 0.056% hits;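 active = inhibition of 50% or more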;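 also: controls were vehicle for no effect and a reference inhibitor for full effect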
Insulin prom inh cell count: also measured in Insulin prom inh; calls as there; normalized cell count, %; measured here: cell count, toxicity; reference of the scale not given here;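 cells exposed to compound for 48 h; stained nuclei by imaging scaled within each plate; lower means fewer cells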
HSV replic up primary fold: recorded beside HSV replic up, whose call it bears; fold increase; compound at 10 µM; measured here: primary screen fold increase 10 uM; tested in PC3 cells;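 GFP signal in the first replicate; 1 = infected wells without compound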
* marks the source's active call; other numbers are inactive results; i = inactive; nt = no result given. Random draw from the library; about 1.3% have a hit in one of these screens.

SMILES	GALR2 ag	Insulin prom inh	Insulin prom inh cell count	RGS16-Gao HTS	HSV replic up	HSV replic up primary fold	PKD1 kinase inh
COc1cc(C#N)ccc1OCC(=O)Nc1cccc(S(=O)(=O)N2CCCC2)c1	nt	nt	nt	99	i	0.97	-1
CCOC(=O)c1cc2cc(F)ccc2nc1C	-1.5	nt	nt	99	i	1	2
COc1ccccc1N1CCN(CC(=O)Nc2ccc3c(c2)OCCO3)CC1	nt	nt	nt	103	i	0.94	0
COc1ccc(-c2c3c(=O)n(C)c(=O)n(C)c3cn2-c2ccccc2)cc1	-3.0	-57	131	105	i	0.97	-5
C(#Cc1ccccc1)CN1CCOCC1	nt	-11	138	98	i	1	-6
CCOC(=O)C1=C(CC)Nc2ccccc2N=C1NC(=O)c1oc2ccccc2c1C	nt	-21	101	110	i	0.68	1
CCN(CC(=O)Nc1ccccc1C(=O)Nc1ccccc1)Cc1nc2ccccc2c(=O)[nH]1	nt	-15	90	102	i	0.95	2
COc1ccc(-c2nn(-c3ccccc3)cc2CNCc2cccnc2)c(F)c1	nt	nt	nt	108	i	0.91	-4
CCOC(=O)c1ccc(NC(=O)CSc2ccc(-c3ccncc3)nn2)cc1	nt	-8	176	98	i	1	-5
COc1ccc2c(c1OC)C(=O)N1c3ccccc3C(=O)N(c3ccc(F)cc3)C21 (configuration not stated)	-0.8	-69	83	105	i	0.83	-5
Cc1cc(F)ccc1S(=O)(=O)N1CCCOC1CNC(=O)C(=O)NCCC1=CCCCC1 (configuration not stated)	-0.7	0	115	103	i	0.83	0
CCOC(=O)C1CCCN(C(=O)CCCOc2cc(=O)n(C)c3ccccc23)C1 (configuration not stated)	-1.0	nt	nt	98	i	0.96	-6
CCSc1nnc(NC(=O)C(C)Sc2nc3ccccc3[nH]2)s1 (configuration not stated)	0.2	nt	nt	100	i	0.98	-3
O=C(CSc1nnc(NC(=O)c2ccco2)s1)Nc1ccc2c(c1)OCCO2	nt	-16	135	94	i	0.95	-2
COC(=O)c1cc(NC(=O)c2cccc(C(F)(F)F)c2)c(=O)oc1C	nt	nt	nt	103	i	0.95	4
CCOc1ccc(N2CC(=O)SC2=S)cc1	-1.4	nt	nt	105	i	0.79	-18
CCOC(=O)N1CCN(c2ccc(S(=O)(=O)N(Cc3ccccc3)Cc3ccccc3)cn2)CC1	-1.5	-27	76	97	i	0.94	-5
COc1ccc([N+](=O)[O-])cc1-n1cccc1	0.5	-12	97	99	i	1.1	-10
Cc1ccc(-n2nnnc2Sc2nc([N+](=O)[O-])nn2C)cc1	-1.0	nt	nt	112	i	0.74	-6
CN(C)c1nc(C#N)nc(N2CCOCC2)n1	0.1	-17	113	89	i	0.94	-1
O=C(COc1cccc(Cl)c1)Nc1ccc(N2CCOCC2)cc1	-2.3	0	205	100	i	0.9	1
Cc1cc(NC(=O)c2ccccc2)c(Cl)cc1N	nt	nt	nt	84	i	0.8	nt
O=C(CSc1nnc(Nc2ccccc2)s1)NN1C(=O)NC2(CCCCC2)C1=O	-0.1	11	141	110	i	1	5
CC1CCC(C(C)C)C(OP(=O)(c2ccccc2)C(O)c2ccncc2)C1 (configuration not stated)	nt	-25	116	101	i	0.91	-2
CCc1cccc(OCCCCNCCCOC)c1	-1.2	23	120	105	i	1	-6
c1ccc(Cc2noc(CN3CCN(Cc4ccc5c(c4)OCO5)CC3)n2)cc1	nt	nt	nt	101	i	1	-9
COc1ccc(CNC(=O)CCSc2ccc(F)cc2)cc1OC	nt	36	103	107	nt	nt	0
O=C(NCCc1ccc(F)cc1)c1n[nH]c2ccccc12	nt	nt	nt	103	i	0.96	-3
COc1ccc(-c2cn3cc(C)ccc3n2)cc1OC	-1.8	67	126	99	i	0.87	-7
Nc1nc(SCC(=O)Nc2ccc(OCc3ccccc3)cc2)n[nH]1	nt	nt	nt	97	i	0.94	nt

Given with two lines to a compound: part of the list above.
Order of values – GALR2 ag, Insulin prom inh, Insulin prom inh cell count, RGS16-Gao HTS, HSV replic up, HSV replic up primary fold, PKD1 kinase inh
- Cc1ccc(-n2nnnc2Sc2nc([N+](=O)[O-])nn2C)cc1
  -1.0, nt, nt, 112, i, 0.74, -6
- CN(C)c1nc(C#N)nc(N2CCOCC2)n1
  0.1, -17, 113, 89, i, 0.94, -1
- O=C(COc1cccc(Cl)c1)Nc1ccc(N2CCOCC2)cc1
  -2.3, 0, 205, 100, i, 0.9, 1
- Cc1cc(NC(=O)c2ccccc2)c(Cl)cc1N
  nt, nt, nt, 84, i, 0.8, nt
- O=C(CSc1nnc(Nc2ccccc2)s1)NN1C(=O)NC2(CCCCC2)C1=O
  -0.1, 11, 141, 110, i, 1, 5
- CC1CCC(C(C)C)C(OP(=O)(c2ccccc2)C(O)c2ccncc2)C1 (configuration not stated)
  nt, -25, 116, 101, i, 0.91, -2
- CCc1cccc(OCCCCNCCCOC)c1
  -1.2, 23, 120, 105, i, 1, -6
- c1ccc(Cc2noc(CN3CCN(Cc4ccc5c(c4)OCO5)CC3)n2)cc1
  nt, nt, nt, 101, i, 1, -9
- COc1ccc(CNC(=O)CCSc2ccc(F)cc2)cc1OC
  nt, 36, 103, 107, nt, nt, 0
- O=C(NCCc1ccc(F)cc1)c1n[nH]c2ccccc12
  nt, nt, nt, 103, i, 0.96, -3
- COc1ccc(-c2cn3cc(C)ccc3n2)cc1OC
  -1.8, 67, 126, 99, i, 0.87, -7
- Nc1nc(SCC(=O)Nc2ccc(OCc3ccccc3)cc2)n[nH]1
  nt, nt, nt, 97, i, 0.94, nt

(continued)
SMILES	GALR2 ag	Insulin prom inh	Insulin prom inh cell count	RGS16-Gao HTS	HSV replic up	HSV replic up primary fold	PKD1 kinase inh
Cc1cccc(N2C(=O)CS/C2=N\NC(=O)c2ccc(Cl)cc2)c1C	-0.7	24	124	98	i	0.74	-7
CC(C)CN(C#N)c1nc(N2CCOCC2)nc(N2CCOCC2)n1	-0.1	-79	81	104	i	0.91	-8
Cc1ccc(-c2cc(C(=O)Nc3cc(C)on3)c3ccccc3n2)c(C)c1	-0.6	nt	nt	102	i	0.98	8
COc1ccc(C=O)cc1OS(=O)(=O)c1ccccc1[N+](=O)[O-]	-1.0	28	86	102	i	1	-10
CC(/C=N/NC(=O)c1cccnc1)=C\c1ccccc1	nt	50	93	98	i	0.91	2
Cc1cccc(NC(=O)c2ccccc2NC(=O)C2CCCCC2)c1C	-1.6	nt	nt	105	i	1	-1
Cc1ccc(NC(=O)c2ccc(S(=O)(=O)C(F)F)cc2)c(C)c1	0.1	nt	nt	58	i	0.97	2
COc1ccc(N(C(=O)c2ccco2)C(C(=O)NC2CCCC2)c2cccs2)cc1OC (configuration not stated)	-0.7	-108	95	105	i	1.1	5
O=C(COc1ncnc2c(Cl)cc(Cl)cc12)N1CCN(S(=O)(=O)c2ccccc2)CC1	-1.0	-5	68	98	i	0.88	-4
O=[N+]([O-])c1ccc(COc2ccc(CNc3ccccc3)cc2)cc1	-0.7	0	38	90	i	0.96	-5
CCn1c(Cc2ccc(OC)cc2)nnc1SCC(=O)Nc1cccc(C(=O)OC)c1	-0.1	-443	42	102	i	1.1	-2
CCCCc1c(C)c(C#N)c2nc3ccccc3n2c1Cl	-1.2	44	59	99	i	0.78	-3
COc1cc([N+](=O)[O-])ccc1NC(=O)C[n+]1cccc(C)c1	-2.6	nt	nt	104	i	0.77	-3
O=C(Nc1ccccc1Cl)c1ccc(-c2ccccn2)s1	nt	nt	nt	102	i	0.78	nt
COc1cc(C(=O)Nc2ccc(O)cc2)ccc1OC(C)=O	-2.4	-21	169	97	i	0.97	-4
Cc1ccc(C)c(CSc2nnc(-c3cccs3)n2Cc2ccco2)c1	-2.2	-26	146	103	i	0.73	-11
CN1C(=O)c2ccccc2Sc2ccc(NC(=O)N3CCCC3)cc21	-0.6	-36	124	104	i	0.91	11
OCCC1CN(Cc2cnc(-c3ccccc3)s2)CCN1CCc1ccccc1 (configuration not stated)	nt	nt	nt	92	i	1	1
Cc1cccc(NC(=O)CN2CCC(NC(=O)C3CCCCC3)CC2)c1C	-0.2	35	138	108	i	1.1	0
O=C(NS(=O)(=O)c1ccc2c(c1)OCCO2)c1ccccc1	-2.7	-119	63	99	i	0.85	-2
CCOC(=O)C1CCN(c2c(Nc3ccc4c(c3)OCCO4)c(=O)c2=O)CC1	-0.3	nt	nt	80	i	0.96	-9
Cc1cccc(/C=C(\c2nc3ccccc3[nH]2)S(=O)(=O)c2ccccc2)c1	-1.0	0	92	104	i	0.81	9
COc1ccc(/C(N)=N/OC(=O)Cc2ccc(C)cc2)cc1	-0.3	-24	114	101	i	0.96	-9
Cc1cc(C)nc(SCC(=O)Nc2ccc(S(=O)(=O)Nc3ncccn3)cc2)n1	nt	38	122	107	i	0.94	-2
O=C(NCc1ccc(-c2csnn2)cc1)c1cccs1	nt	nt	nt	105	i	0.92	nt
O=C(CCSCCC(=O)NCC1CCCO1)NCC1CCCO1 (configuration not stated)	-2.3	52	128	99	i	1.1	-7
COc1cc(/C=N/NC(=O)COc2ccccc2[N+](=O)[O-])ccc1OC(=O)c1ccco1	-0.8	7	65	82	i	0.87	-2
O=C(CSc1nc(Nc2ccccc2)nc(N2CCOCC2)n1)Nc1ccccc1Cl	-3.4	-40	150	105	i	0.76	-1
Cc1cc(=O)oc2ccc(OCC(=O)N(Cc3ccc(F)cc3)Cc3ccco3)cc12	-1.2	-18	119	100	i	1.1	-6
CCOC(=O)C1C2C=CC3(CN(c4cccc(Cl)c4)C(=O)C13)O2 (configuration not stated)	-3.1	nt	nt	96	i	0.77	4
CCOc1ncnc2c1[nH]c1ccccc12	nt	nt	nt	103	i	0.94	nt
CN=C1SC(CC(=O)Nc2ccc(C(=O)O)cc2)C(=O)N1C (configuration not stated)	-1.2	21	165	96	i	1	-3
c1ccc(CN2CCC(N3CCN(Cc4ccc5c(c4)OCO5)CC3)CC2)cc1	nt	nt	nt	97	i	0.95	nt
Cc1ccc(SCC(=O)N(Cc2nc(-c3ccccc3)no2)C(C)C)cc1	0.1	-36	112	105	i	0.91	-1
CCc1ccc(C(=O)Cn2ncc(Cl)c(Cl)c2=O)cc1	-2.1	-54	51	95	i	0.6	-3
O=C(NCCCn1ccnc1)C(=O)NCC1OCCCN1S(=O)(=O)c1ccc(Cl)cc1 (configuration not stated)	-0.3	7	109	101	i	0.97	0
CN(NC(=S)Nc1ccc(OC(F)F)cc1)C(=S)Nc1ccc(OC(F)F)cc1	-1.1	nt	nt	105	i	1	0
O=c1cnn([C@@H]2O[C@H](CO)[C@@H](O)[C@H]2O)c(=O)[nH]1	-2.5	-29	83	87	i	0.86	-5
CCSc1ccccc1C(=O)N=C1NC(=O)CC2C(=O)NCCN12 (configuration not stated)	nt	21	120	97	i	0.95	2
COc1ccc(/C=C(\C)c2nc(C)c(-c3ccccc3)c(=O)[nH]2)cc1	nt	nt	nt	148	i	1	nt
Cc1cc(Cl)ccc1NC(=O)Cn1cncn1	nt	-15	104	97	i	1.1	-1
CCC(=O)Nc1cc(NC(=O)CSc2nnc(C(C)C)n2CC)ccc1C	-1.5	-50	95	94	nt	nt	-6
CC1CCc2c(sc(NC(=S)NC(=O)c3ccccc3)c2C#N)C1 (configuration not stated)	nt	nt	nt	96	i	0.94	nt
CCOc1nc(-c2ccncc2)nc2ccccc12	-1.3	2	144	97	i	0.98	-2
O=C(NCc1cccs1)C1CC(=O)N(c2ccc(Cl)cc2)C1 (configuration not stated)	nt	nt	nt	71	i	0.98	4
COc1cc(-c2csc(N3CCOCC3)n2)cc(OC)c1OC	-2.8	10	121	105	i	1.1	-1
Cn1c(=O)c(=O)n(C)c2cc(S(=O)(=O)N3CCCCC3)ccc21	1.1	6	54	104	i	0.9	-1
Cc1ccc(S(=O)(=O)N(C)CC(=O)OCC(=O)NC(=O)NC(C)C)cc1	nt	nt	nt	98	i	1.2	nt
NC1=NC2(CCCC2)N=C(Nc2ccccc2)N1	nt	nt	nt	103	i	0.98	nt
CC(NC(=O)NC1CCCCC1)C(c1cccs1)N1CCOCC1 (configuration not stated)	-0.2	nt	nt	102	i	0.92	-7
(more compounds)
SMILES	GALR2 ag	Insulin prom inh	Insulin prom inh cell count	RGS16-Gao HTS	HSV replic up	HSV replic up primary fold	PKD1 kinase inh
CN(Cc1ccccc1)C(=O)c1nc2ccccn2c1CNCCOc1cccnc1	nt	nt	nt	103	i	0.95	-13
OCCNCCNCc1ccccc1OCc1ccccc1	nt	-75	189	102	i	0.87	-8
C=CCn1c(SCc2ccc(F)cc2)nc2c1c(=O)[nH]c(=O)n2C	-3.1	nt	nt	101	i	0.97	0
O=C(Nc1ccc(F)cc1F)c1sccc1SCc1cccc(C(F)(F)F)c1	0.8	-2	118	99	nt	nt	11

From PubChem
